# ID4 SMM: binders of human ID4 protein, primary screen, biochemical, small molecule microarray, single point; DNA-binding protein inhibitor ID-4 (Homo sapiens), P47928; hit rate 1.2% among 31,000; Flag-ID4 binding, fluorescence F/B; calls only;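 active = spot signal over background at p below 0.07 in all four prints; compounds were printed on slides so no solution concentration is given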;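 also: a binder raises fluorescence above local background on the spot; about 2 pmol printed per array spot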
# Target sequence (P47928 whole entry, looked up): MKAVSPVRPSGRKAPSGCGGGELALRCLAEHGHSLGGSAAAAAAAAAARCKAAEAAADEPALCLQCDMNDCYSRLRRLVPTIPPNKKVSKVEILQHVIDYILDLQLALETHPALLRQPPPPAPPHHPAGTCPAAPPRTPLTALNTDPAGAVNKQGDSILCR
# Calls only; i = inactive; + = active, no number.
SMILES,ID4 SMM
C[C@H]1CN([C@@H](C)CO)C(=O)c2cc(/C=C/c3ccccc3)cnc2O[C@H]1CN(C)C,i
CCN(CC(=O)Nc1ccccc1C(F)(F)F)S(=O)(=O)c1ccc(C)cc1,i
CCC(=O)N[C@@H]1C=C[C@@H](CC(=O)OC)O[C@@H]1CO,i
O=C(Nc1ccc(Cl)cc1C(=O)NCCN1CCOCC1)c1ccc(Cl)cc1Cl,i
C[C@H](CO)N1C[C@H](C)[C@@H](CN(C)C(=O)c2ccccc2F)Oc2cc(-c3ccccc3)ccc2S1(=O)=O,i
Cc1ccc(-n2c(SCC(=O)Nc3ccc(F)c(Cl)c3)nnc2-c2ccco2)cc1,i
CC(=O)Oc1ccc2c(c1C(C)C)CCC1C(C)(C)CCC[C@]21C (some centres undefined),i
N#Cc1cc2c(nc1SCC(=O)Nc1cccc(F)c1)CCCC2,i
Cc1cc(C(C)(C)C)c(O)c(C)c1CC1=NCCN1,i
C/C=C/c1ccc2c(c1)O[C@@H](CN(C)Cc1ccccc1)[C@@H](C)CN([C@@H](C)CO)S2(=O)=O,i
CCCC#Cc1cnc2c(c1)C(=O)N([C@H](C)CO)C[C@@H](C)[C@H](CN(C)S(=O)(=O)c1cccc(OC)c1)O2,i
CCCCc1ccc(NC(=O)N2CCN(c3cc(C)nc4ccccc34)CC2)c(C)c1,i
Cc1ccc(S(=O)(=O)N2C(=O)CCC2C(=O)Nc2ccc(Cl)c(C(F)(F)F)c2)cc1 (centres undefined),i
CCCC#Cc1cnc2c(c1)C(=O)N([C@@H](C)CO)C[C@@H](C)[C@@H](CN(C)C(=O)c1cnccn1)O2,i
CCC(=O)N[C@@H]1CC[C@H](CC(=O)NCc2cc(F)cc(F)c2)O[C@@H]1CO,i
COc1cccc(S(=O)(=O)N(C)C[C@@H]2Oc3cc(C#CCC(C)C)ccc3S(=O)(=O)N([C@H](C)CO)C[C@@H]2C)c1,i
O=C(Nc1ccc(I)cc1C(=O)N1CCN(CCO)CC1)c1ccccc1Cl,i
CCCC#Cc1ccc2c(c1)O[C@@H](CN(C)S(=O)(=O)c1cccc(OC)c1)[C@H](C)CN([C@@H](C)CO)S2(=O)=O,i
N#Cc1c(NC(=O)CCCOc2ccc(Cl)cc2Cl)sc2c1CCCC2,i
COc1ccc(NC(=O)CN(c2cc(Cl)cc(Cl)c2)S(C)(=O)=O)cc1Cl,i
Cc1ccc(C(=O)O)cc1NC(=O)CCN1C(=O)c2ccccc2C1=O,i
C[C@@H]1CN([C@@H](C)CO)C(=O)c2cc(C3=CCCCC3)cnc2O[C@@H]1CN(C)CC1CCOCC1,i
Nc1nonc1-c1nc2ccccc2n1CC(=O)Nc1cccc(Cl)c1Cl,i
Cc1cccc(CN2CCC(CNC(=O)c3cc4cc5ccc(C)cc5nc4o3)CC2)c1,i
Nc1c(S(=O)(=O)c2ccccc2)nnn1-c1ccc(OC(F)(F)F)cc1,i
C[C@H](CO)N1C[C@H](C)[C@H](CN(C)Cc2ccccc2)Oc2ccc(NC(=O)C3CC3)cc2CC1=O,i
COc1cc(NC(=O)COc2cc(C)ccc2C)c(C(=O)O)cc1OC,i
O=C(Nc1ccc(S(=O)(=O)Nc2ncccn2)cc1)c1cccc(I)c1,i
CN(C)CC(=O)N[C@@H]1C=C[C@H](CC(=O)NCc2ccccc2F)O[C@@H]1CO,i
CN(C)C(=O)C[C@@H]1C=C[C@@H](NC(=O)C2CCC2)[C@H](CO)O1,i

# Brought forward from above: three compounds; new compounds follow.
SMILES,ID4 SMM
O=C(Nc1ccc(S(=O)(=O)Nc2ncccn2)cc1)c1cccc(I)c1,i
CN(C)CC(=O)N[C@@H]1C=C[C@H](CC(=O)NCc2ccccc2F)O[C@@H]1CO,i
CN(C)C(=O)C[C@@H]1C=C[C@@H](NC(=O)C2CCC2)[C@H](CO)O1,i
CC(C)C#Cc1cnc2c(c1)C(=O)N([C@@H](C)CO)C[C@@H](C)[C@@H](CN(C)Cc1ccccc1F)O2,i
O=C(C[C@H]1C=C[C@@H](NC(=O)C2CC2)[C@@H](CO)O1)NC1CCC1,i
O=C(COc1ccc([N+](=O)[O-])cc1)Nc1ccc2oc(-c3cc(F)c(F)cc3Cl)nc2c1,i
CCn1c(SCC(=O)Nc2cc(F)ccc2C)nnc1-c1ccccc1O,i
CC(C)NS(=O)(=O)c1ccc(NC(=O)C2CCCCC2C(=O)O)cc1 (centres undefined),i
C[C@H]1CN([C@@H](C)CO)C(=O)c2cc(Br)cnc2O[C@@H]1CN(C)C(=O)C1CCC1,i
O=C1NC(=O)C(c2ccccc2)(c2ccccc2)N1,i
C/C=C/c1cnc2c(c1)C(=O)N([C@H](C)CO)C[C@H](C)[C@H](CN(C)Cc1ccc3c(c1)OCO3)O2,i
CCCN1C[C@@H](C)[C@H](OC)CN(C)C(=O)c2cc(NC(=O)c3cccc(F)c3)ccc2OC[C@H]1C,i
C[C@@H]1CN([C@@H](C)CO)C(=O)Cc2cc(NC(=O)C3CCCCC3)ccc2O[C@H]1CN(C)CC1CC1,i
CCC(=O)N[C@H]1C=C[C@@H](CC(=O)NCc2ccccc2F)O[C@@H]1CO,i
CS(=O)(=O)Nc1ccc2c(c1)[C@H]1C[C@H](CC(=O)NC3CCCC3)O[C@H](CO)[C@H]1O2,i
COc1ccc(C)cc1S(=O)(=O)N1CCCC(C(=O)Nc2cccc(SC)c2)C1 (centres undefined),i
C[C@H](CO)N1C[C@H](C)[C@H](CN(C)CC2CCOCC2)Oc2ncc(C3=CCCCC3)cc2C1=O,i
CCOc1ccc(-n2nc3ccc(NC(=O)COc4ccccc4)cc3n2)cc1,i
O=C(C[C@@H]1C[C@H]2c3cc(NC(=O)C4CCOCC4)ccc3O[C@H]2[C@H](CO)O1)NCc1ccccc1F,i
COc1ccccc1NC(=O)N[C@@H]1CC[C@H](CC(=O)NCc2ccc(Cl)c(Cl)c2)O[C@@H]1CO,i
COc1ccccc1NC(=O)CC1COc2ccccc2O1 (centres undefined),i
COC(=O)[C@@H]1N=C(c2ccc(OCCCO)cc2)O[C@@H]1c1ccccc1N=[N+]=[N-],i
Cc1cc(=O)[nH]c(SCc2nc3ccc([N+](=O)[O-])cc3[nH]2)n1,i
COc1cc(C)c(S(=O)(=O)NCc2cccnc2)cc1C,i
CC(=O)c1cccc(N(CC(=O)Nc2cccnc2)S(C)(=O)=O)c1,i
COc1ccc(C(=O)Cn2c3ccccc3n3nc(-c4cccs4)nc23)cc1OC,i
Cc1ccc(-c2cnc3c(c2)C(=O)N([C@@H](C)CO)C[C@H](C)[C@@H](CN(C)C(=O)c2ccccc2)O3)cc1,i
O=c1cc(-c2ccc(O[C@@H]3O[C@H](CO)[C@@H](O)[C@H](O)[C@H]3O)cc2)oc2cc(O)cc(O)c12,i
CCOC(=O)CN1C(=O)C(O)(c2c(C)[nH]c3ccccc23)c2ccccc21 (centres undefined),i
O=C(C[C@H]1CC[C@H](NC(=O)c2ccncc2)[C@@H](CO)O1)NCC1CC1,i
O=c1c2ccccc2[nH]c(=S)n1CCCN1CCN(Cc2ccccc2)CC1,i
CCC1(C)Cc2c(sc3nc(SC)nc(SCC(=O)Nc4cccc(Cl)c4)c23)CO1 (centres undefined),i
COc1ccc(OC)c(CN2CCN(Cc3cccc([N+](=O)[O-])c3)CC2)c1,i
C=CCN(CC=C)S(=O)(=O)c1ccc(C(=O)Nc2ccccc2-c2nc3ccccc3[nH]2)cc1,i
C[C@@H]1CN([C@H](C)CO)C(=O)c2cccc(N(C)C)c2O[C@H]1CN(C)C(=O)Nc1ccc(F)cc1,i
CCCC#Cc1ccc2c(c1)O[C@@H](CN(C)CC1CCOCC1)[C@@H](C)CN([C@@H](C)CO)S2(=O)=O,i
C[C@@H]1CN([C@H](C)CO)C(=O)c2cc(-c3cccc(C#N)c3)cnc2O[C@H]1CN(C)Cc1ccccc1,i
O=C(C[C@H]1C=C[C@H](NC(=O)c2cccc(F)c2)[C@@H](CO)O1)Nc1nccs1,i
OCCCc1nc2ccccc2n1Cc1c(F)cccc1Cl,i
Cn1c(SCC(=O)Nc2ccc(Br)c(Cl)c2)nnc1-c1ccco1,i
C[C@H]1CN([C@@H](C)CO)C(=O)c2cc(Br)cnc2O[C@H]1CN(C)CC1CCCC1,i
Cc1ccc(C)c(NC(=O)CSc2c(C)n[nH]c2C)c1,i
CS(=O)(=O)N(CC(=O)Nc1ccccc1Br)c1cc(Cl)c(Cl)cc1Cl,i

# Random excerpt: 2 compounds from above, in no set order.
SMILES,ID4 SMM
CS(=O)(=O)N(CC(=O)Nc1ccccc1Br)c1cc(Cl)c(Cl)cc1Cl,i
CCCC#Cc1ccc2c(c1)O[C@@H](CN(C)CC1CCOCC1)[C@@H](C)CN([C@@H](C)CO)S2(=O)=O,i

# (cont.)
SMILES,ID4 SMM
C[C@H](CO)N1C[C@H](C)[C@@H](CN(C)C(=O)c2cnccn2)Oc2ncc(-c3ccccc3F)cc2C1=O,i
CCC(Sc1nnnn1C)C(=O)Nc1cccc([N+](=O)[O-])c1 (centres undefined),i
C[C@H]1CN([C@@H](C)CO)C(=O)c2ccccc2-c2ccccc2CO[C@@H]1CN(C)S(=O)(=O)c1ccc(C#N)cc1,i
COc1ccc(C)cc1S(=O)(=O)N1CCC(C(=O)Nc2cc([N+](=O)[O-])ccc2C)CC1,i
COc1ccc(-c2ccc3c(c2)O[C@H](CN(C)C)[C@@H](C)CN([C@@H](C)CO)S3(=O)=O)cc1,i
CS(=O)(=O)N(CC(=O)Nc1ccccc1C(=O)O)c1cccc(C(F)(F)F)c1,i
Cc1ccc(S(=O)(=O)NC(C)C(=O)Nc2cccc(C(F)(F)F)c2)cc1 (centres undefined),i
O=C(C[C@@H]1CC[C@@H](NC(=O)Nc2cc(F)ccc2F)[C@@H](CO)O1)NCc1ccncn1,i
CO[C@H](CN(C)C(=O)C1CCOCC1)[C@@H](C)CN(C(=O)Nc1ccc(C(F)(F)F)cc1)[C@H](C)CO,i
COc1ccc(C)cc1NC(=O)CSc1nnc(-c2ccc(Br)cc2)o1,i

# 5 entries already listed, arranged by count of non-hydrogen atoms, largest number first:
SMILES,ID4 SMM
C[C@H]1CN([C@@H](C)CO)C(=O)c2ccccc2-c2ccccc2CO[C@@H]1CN(C)S(=O)(=O)c1ccc(C#N)cc1,i
C[C@H](CO)N1C[C@H](C)[C@@H](CN(C)C(=O)c2cnccn2)Oc2ncc(-c3ccccc3F)cc2C1=O,i
COc1ccc(C)cc1S(=O)(=O)N1CCC(C(=O)Nc2cc([N+](=O)[O-])ccc2C)CC1,i
CS(=O)(=O)N(CC(=O)Nc1ccccc1C(=O)O)c1cccc(C(F)(F)F)c1,i
COc1ccc(C)cc1NC(=O)CSc1nnc(-c2ccc(Br)cc2)o1,i

# (list continues)
SMILES,ID4 SMM
COC(=O)c1ccccc1NC(=O)C(C)NS(=O)(=O)c1ccc(Cl)cc1 (centres undefined),i
CO[C@@H]1CN(C)C(=O)c2cc(NC(=O)C3CCOCC3)ccc2OC[C@@H](C)N(CC2CC2)C[C@H]1C,i
C[C@H]1CN([C@@H](C)CO)C(=O)Cc2cc(N(C)C)ccc2O[C@@H]1CN(C)Cc1ccc2c(c1)OCO2,i
C=CCN1CCN(c2nc3ccccc3nc2C#N)CC1,+
O=C(C[C@H]1CC[C@@H](NC(=O)Nc2ccc(C(F)(F)F)cc2)[C@@H](CO)O1)NCCN1CCCC1,i
COc1ccc(NC(=O)N[C@@H]2CC[C@@H](CC(=O)NCc3ccccn3)O[C@@H]2CO)cc1,i
CO[C@@H](CN(C)C(=O)C1CCOCC1)[C@@H](C)CN(C(=O)Nc1ccc(C(F)(F)F)cc1)[C@@H](C)CO,i
CCCC#Cc1cnc2c(c1)C(=O)N([C@@H](C)CO)C[C@H](C)[C@H](CN(C)C(=O)Nc1ccc(OC)cc1)O2,i
COc1ccc2nc(SCC(=O)NC3CCCCC3)[nH]c2c1,i
CN1CCN(C(CC(=O)Nc2cccc(O)c2)C(=O)O)CC1 (centres undefined),i
COCC#Cc1ccc2c(c1)O[C@@H](CN(C)CC1CCCCC1)[C@H](C)CN([C@@H](C)CO)S2(=O)=O,i
O=C(N[C@H]1C=C[C@H](CC(=O)N2CCc3ccccc3C2)O[C@@H]1CO)C1CCC1,i
Cc1ccc(NC(=O)CSc2ncnc3sc(C)c(C)c23)cc1,i
CS(=O)(=O)N(CC(=O)O)c1ccc(F)c(Cl)c1,i
Cc1nonc1OCCNc1cc(N2CCOCC2)ccc1[N+](=O)[O-],i
O=C(CN1C(=O)c2ccccc2S1(=O)=O)Nc1ccccc1-c1ccccc1,i
COC(=O)C(Cc1c[nH]c2ccccc12)NC(=O)C(NC(=O)C(C)NC(=O)/C=C/C(=O)O)C(C)c1c[nH]c2ccccc12 (centres undefined),i
O=C(N[C@@H]1C=C[C@@H](CC(=O)N2CCC(Cc3ccccc3)CC2)O[C@@H]1CO)c1cnccn1,i
COc1cc(OC)c(NC(=O)CN(C)S(=O)(=O)c2ccc(C)cc2)cc1Cl,i
COc1ccccc1NC(=O)c1c(NC(=O)COc2ccccc2)sc(C)c1C,i
COc1ccc(-c2csc(Cc3nc(-c4cc5ccccc5oc4=O)cs3)n2)cc1,i
C[C@@H]1CN([C@H](C)CO)C(=O)c2cc(C#CCN(C)C)cnc2O[C@@H]1CN(C)Cc1ccncc1,i
C[C@@H]1CN([C@@H](C)CO)S(=O)(=O)c2ccc(C#Cc3ccc(F)cc3)cc2O[C@@H]1CN(C)C,i
O=C(COc1ccc(S(=O)(=O)N2CCCC2)cc1Cl)Nc1ccc2c(c1)OCCO2,i
Cc1ccc(-n2c(C)nnc2SCC(=O)Nc2cccc(C(F)(F)F)c2)cc1,i
C[C@H](O)C#Cc1ccc2c(c1)O[C@@H](CN(C)C(=O)CN(C)C)[C@H](C)CN([C@@H](C)CO)S2(=O)=O,i
O=C(Cn1c2ccccc2n2nc(-c3ccccc3)nc12)c1ccccc1,i
Fc1ccc2[nH]cc(CCCN3CCN(c4nc5cc(Cl)ccc5s4)CC3)c2c1,i

# Source: PubChem

# Some of the compounds tested; rates above refer to the full screens.
